Autofluor counter = flagged as autofluorescent in microsphere protease counterscreen; compound autofluorescence counterscreen, microsphere flow cytometry; stronger effect = higher value; fluorescence intensity (test concentration not listed); hit rate 3.1% among 360,000; AID 624483;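 active = at least 3 SD above the mean of all compounds, about 16000 in these data; inconclusive = too few beads counted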;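 also: 100 nL of 1 mM stock went into each well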
PrP UTR inh = inhibition of PrP 5' UTR reporter expression; cell-based PrP 5' UTR mRNA reporter, plate reader; inhibition, % (concentration not given with the values); hit rate 0.35% among 340,000; AID 488862;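 active = every replicate at 50% or more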;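 also: 0 = median of the neutral control wells; tested in H4 reporter cells; numbers are from one replicate; inactives centre near -14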
BJeLR lethal = kills HRASV12-expressing BJeLR cells | BJeLR (HRASV12) viability, CellTiter-Glo ATP luminescence, 48 h; reference of the scale not given here | inhibition, % (no concentration beside the values) | hit rate 0.17% among 300,000 | AID 1554;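 active = replicate mean above 50%; inconclusive = above 50% but judged a plate artefact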;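 also: 50 nL library stock added to about 25 µL; numbers are from one replicate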
ugtP null kill = growth inhibition of S. aureus ugtP deletion strain; S. aureus RN4220 ugtP deletion, OD600 growth, 16 h; some inactives read as strong as hits; growth inhibition, % (test concentration not listed); hit rate 0.54% among 330,000;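 active = z-score under -3 and OD600 up to 0.15 on both plates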;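 also: plate controls were untreated wells for no effect and antibiotic for full effect; wells of about 80 µL received 100 nL stock; the first replicate is given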
Sa RN4220 lethal = kills Staphylococcus aureus RN4220 | S. aureus RN4220 growth, OD600, 16 h | inhibition, % (concentration not given with the values) | hit rate 0.33% among 330,000;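 active = z-score of -3 or lower and OD600 up to 0.18 on both plates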;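 also: plate controls were untreated cells for no effect and reference antibiotic for full effect; stock transfer was 100 nL into about 80 µL; one replicate is shown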
Mtb hypoxia inh = reduces hypoxia-regulated biosensor signal in M. tuberculosis | M. tuberculosis hypoxia-regulated fluorescent reporter, fluorescence | fluorescence inhibition, % (concentration not given with the values) | hit rate 0.1% among 300,000;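 active = 35 to 45% if threefold the growth effect, above 45% if 1.5-fold the growth effect; inactive = the rest, general growth blockers included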;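 also: wells of about 50 µL received 100 nL stock; 0% = vehicle wells and 100% = reference inhibitor wells; whole bacteria with a GFP reporter of the hypoxia response; strong numbers were not always called active; many hits fall short of the cut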
Mtb hypoxia inh growth = recorded beside Mtb hypoxia inh, whose call it bears; growth inhibition, %; measured here: M. tuberculosis growth (absorbance);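 0% = vehicle and 100% = reference antibiotic; read after six days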
Starred values were filed as active, the others as inactive; ? = inconclusive; . = not tested or not shown; & = joins results of further samples.

Start of the data: the first 17 compounds as a preview:
SMILES	Autofluor counter	PrP UTR inh	BJeLR lethal	ugtP null kill	Sa RN4220 lethal	Mtb hypoxia inh	Mtb hypoxia inh growth
Cc1ccc(C(=O)COC(=O)CCC(=O)Nc2cccc(Cl)c2)cc1[N+](=O)[O-]	2648	-13	0	1	2.2	.	.
O=C(NCCc1ccccc1)C(c1ccncc1)N(C(=O)c1csnn1)C1CC1 (configuration not stated)	4746	3	1	3	2.0	6	4
COc1ccc(CN(C)C(=O)c2cccc(NS(=O)(=O)c3ccccc3)c2)cc1F	3082	2	1	5	1.2	-4	-7
COc1ccccc1C(=O)COC(=O)c1ccccc1OCC(=O)Nc1ccc(SC(F)F)cc1	1994	-40	13	7	3.7	5	16
COc1ccccc1CNC(=O)CCCn1nc(C)n2ccnc2c1=O	5453	-6	-10	1	-3.7	7	5
COC(C/C=C\[C@H](O)[C@H](C)OCc1ccccc1)OC	3840	-13	-5	.	.	.	.
COC(=O)c1cc(=O)n(Cc2ccc3c(c2)OCO3)c(=Nc2ccc(F)cc2)s1	5932	-45	-14	-6	-22	3	15
Cc1ccc(OCCCN2C(=O)C(=O)c3cc(C)ccc32)cc1	3219	-13	21	16	40	9	2
CCN(c1ccccc1)c1cc2ccccc2c(=O)[nH]1	5008	-14	-1	.	.	.	.
CCC(CO)Oc1cc(NCc2ccccc2C(F)(F)F)c2ncn(C(C)C)c2c1 (configuration not stated)	3085	-13	.	11	12	4	5
O=[N+]([O-])c1cccc(-c2n[nH]c(=S)n2-c2ccc(Br)cc2)c1	3801	1	-3	2	-1.4	-2	11
Cn1c(N)c(N=O)c(=O)n(C)c1=S	3670	1	.	-5	-2.7	5	11
O=C(CCCN1C(=O)CSc2ncccc21)N1CCN(c2cccc(C(F)(F)F)c2)CC1	3731	-10	0	6	-7.4	10	5
CCS(=O)(=O)Nc1c(C(=O)OC)[nH]c2ccccc12	14385	-11	2	3	2.6	3	-1
CCCCCCc1ccc(N2CC(C)C(CC(=O)NCc3ccccc3)C2=O)cc1 (configuration not stated)	.	.	.	4	-1.3	-4	2
COC(=O)c1cc(C(=O)N2CCc3ccccc32)cc([N+](=O)[O-])c1	4301	-26	-6	.	.	.	.
CCOc1ccc(Cn2nnc(C(=O)NCc3ccc(OC)cc3)c2N)cc1	5863	-35	-3	-1	2.3	.	.

This part in full, from the first entry:
SMILES	Autofluor counter	PrP UTR inh	BJeLR lethal	ugtP null kill	Sa RN4220 lethal	Mtb hypoxia inh	Mtb hypoxia inh growth
Cc1ccc(C(=O)COC(=O)CCC(=O)Nc2cccc(Cl)c2)cc1[N+](=O)[O-]	2648	-13	0	1	2.2	.	.
O=C(NCCc1ccccc1)C(c1ccncc1)N(C(=O)c1csnn1)C1CC1 (configuration not stated)	4746	3	1	3	2.0	6	4
COc1ccc(CN(C)C(=O)c2cccc(NS(=O)(=O)c3ccccc3)c2)cc1F	3082	2	1	5	1.2	-4	-7
COc1ccccc1C(=O)COC(=O)c1ccccc1OCC(=O)Nc1ccc(SC(F)F)cc1	1994	-40	13	7	3.7	5	16
COc1ccccc1CNC(=O)CCCn1nc(C)n2ccnc2c1=O	5453	-6	-10	1	-3.7	7	5
COC(C/C=C\[C@H](O)[C@H](C)OCc1ccccc1)OC	3840	-13	-5	.	.	.	.
COC(=O)c1cc(=O)n(Cc2ccc3c(c2)OCO3)c(=Nc2ccc(F)cc2)s1	5932	-45	-14	-6	-22	3	15
Cc1ccc(OCCCN2C(=O)C(=O)c3cc(C)ccc32)cc1	3219	-13	21	16	40	9	2
CCN(c1ccccc1)c1cc2ccccc2c(=O)[nH]1	5008	-14	-1	.	.	.	.
CCC(CO)Oc1cc(NCc2ccccc2C(F)(F)F)c2ncn(C(C)C)c2c1 (configuration not stated)	3085	-13	.	11	12	4	5
O=[N+]([O-])c1cccc(-c2n[nH]c(=S)n2-c2ccc(Br)cc2)c1	3801	1	-3	2	-1.4	-2	11
Cn1c(N)c(N=O)c(=O)n(C)c1=S	3670	1	.	-5	-2.7	5	11
O=C(CCCN1C(=O)CSc2ncccc21)N1CCN(c2cccc(C(F)(F)F)c2)CC1	3731	-10	0	6	-7.4	10	5
CCS(=O)(=O)Nc1c(C(=O)OC)[nH]c2ccccc12	14385	-11	2	3	2.6	3	-1
CCCCCCc1ccc(N2CC(C)C(CC(=O)NCc3ccccc3)C2=O)cc1 (configuration not stated)	.	.	.	4	-1.3	-4	2
COC(=O)c1cc(C(=O)N2CCc3ccccc32)cc([N+](=O)[O-])c1	4301	-26	-6	.	.	.	.
CCOc1ccc(Cn2nnc(C(=O)NCc3ccc(OC)cc3)c2N)cc1	5863	-35	-3	-1	2.3	.	.
Cn1c(-c2ccccc2)cccc1=O	9788	-23	7	-4	3.9	1	7
CCOC(=O)N1CCC(NC(=O)CCS(=O)(=O)c2ccc3c(c2)CCN3C(=O)CC)CC1	.	-3	0	2	0.8	24	-18
O=C(CCC1CCCCC1)Nc1cc(C(F)(F)F)ccc1N1CCOCC1	5857	-14	-1	-13	-2.8	-5	12
O=C(N1CCCCC1)C1(c2ccccc2)CCCCC1	3513	-20	-10	4	5.5	16	15
Oc1nc(-c2ccc(Cl)cc2)n2ccncc12	4230	-56	5	12	5.9	6	6
CCn1cc(C(=O)OCc2ccccc2)c(=O)c2ccc(C)nc21	5147	45	-11	-2	-5.0	.	.
O=C(CN1CCN(S(=O)(=O)c2ccc(Br)cc2)CC1)Nc1ccccc1F	2719	-16	-16	-1	-0.8	.	.
O=[N+]([O-])c1cc2c(cc1C=Nc1ccccc1)OCO2	3808	-4	14	.	.	.	.
CC(C)COc1ccc(C(=O)NN=Cc2ccoc2)cc1	.	.	.	12	4.5	6	1
COc1ccc(CC(=O)Nc2ccc(S(=O)(=O)N3CCCC3)cc2)c(OC)c1	3576	-17	.	-1	0.2	-5	3
CCCCn1c(CCNC(=O)c2ccco2)nc2ccccc21	5958	-14	8	2	2.9	3	3
CC1(c2ccccc2Br)NC(=O)N(CC(=O)Nc2ccc(S(N)(=O)=O)cc2)C1=O (configuration not stated)	5325	-84	2	-3	0.4	4	4
CC(=NN1CCN(C)CC1)c1ccc(Cl)c(Cl)c1	.	.	.	4	-1.4	-7	-11

Record cards (already shown). Order of screens: Autofluor counter, PrP UTR inh, BJeLR lethal, ugtP null kill, Sa RN4220 lethal, Mtb hypoxia inh, Mtb hypoxia inh growth
Shown for Oc1nc(-c2ccc(Cl)cc2)n2ccncc12 = 4230, -56, 5, 12, 5.9, 6, 6
Shown for CCn1cc(C(=O)OCc2ccccc2)c(=O)c2ccc(C)nc21 = 5147, 45, -11, -2, -5.0, ., .

Later entries.
SMILES	Autofluor counter	PrP UTR inh	BJeLR lethal	ugtP null kill	Sa RN4220 lethal	Mtb hypoxia inh	Mtb hypoxia inh growth
CC(=O)Nc1ccc(S(=O)(=O)N2CCSCC2)cc1	10113	-1	0	3	3.2	10	0
Nc1c(-c2cccc(Cl)c2)cnn1-c1cccc(C(F)(F)F)c1	8676	-54	7	-29	6.6	2	3
COc1ccc(CNC(=O)c2ccc(S(=O)(=O)NCc3ccco3)cc2)cc1	?	-8	.	3	4.1	14	13
Cc1ccc(NC(=O)NCCCN2CCCC2=O)cc1	22287*	-15	-7	0	1.7	9	9
COC(=O)[C@]1(C)CCC[C@@]2(C)C3CC[C@@]4(C)C[C@]3(CCC21)CC(=O)N4Cc1ccc(OC)cc1 (some centres not stated)	3975	2	.	16	6.8	-1	7
Cc1cc(C)cc(C(=O)Nc2ccc(N3CCN(C(=O)c4ccco4)CC3)cc2)c1	4205	-9	-3	5	-2.8	0	-1
COc1cccc(C2=NN(C(=O)c3cccs3)C(O)(C(F)(F)F)C2)c1 (configuration not stated)	4443	-22	-10	74	91*	-3	11
Cn1ncc(Cl)c1C(=O)NN=Cc1cc2c(cc1[N+](=O)[O-])OCO2	.	.	.	4	4.0	12	1
Cc1ccccc1N=C(NOCc1ccccc1)c1nonc1N	3907	-14	.	-2	4.6	1	-6
Cc1ccc(/C=C/C(=O)NCCCn2ccnc2)cc1	4355	-49	5	11	7.0	-8	0
O=c1c2ccccc2c(C=Nc2ccccc2O)c(O)n1-c1nccs1	4475	-10	4	9	1.2	0	8
CCOC1OC(C(=O)Nc2ccccc2)=CC(c2ccc(C(F)(F)F)cc2)C1CCCO (configuration not stated)	.	.	.	-4&-14	0.1&-3.8	-2&-1	-1&0
NCC(O)COCCC12CC3CC(CC(C3)C1)C2 (configuration not stated)	3819	-36	4	5	5.4	.	.
CC(C)CN(C(=O)CC1CCCC1)c1c(N)n(Cc2ccccc2)c(=O)[nH]c1=O	6623	-14	4	5	1.1	9	-5
COC(=O)[C@H](CCSC)NC(=O)Nc1cccc(C)c1C	.	-9	-1	-2	1.7	3	2
O=C(O)c1cnc(N2CCOCC2)nc1	4239	-16	-8	7	5.6	3	-2
Cc1cccc(OCC(=O)NCC(=O)N/N=C/c2cccnc2)c1	5213	-8	-2	.	.	.	.
CN(C)c1ccc(/C(=N\O)C(F)(F)F)cc1	7583	-3	3	.	.	.	.
Cn1ccnc1SCCC#N	2904	-37	-1	2	12	4	9
NNC(=O)c1csc(COc2cc(Cl)cc(Cl)c2)n1	.	-28	-5	-9	3.8	4	-6
CCC(=O)N1CCc2cc(S(=O)(=O)NC(C(=O)NCc3ccccc3)C(C)C)ccc21 (configuration not stated)	6818	-20	6	11	3.4	1	0
COc1ccccc1NC(=O)CC1COc2ccccc2O1 (configuration not stated)	2431	-6	2	-3	-9.5	9	6
Cc1noc(C)c1C(=O)Nc1cccc(S(=O)(=O)N2CCCCC2)c1	3041	-24	.	6	1.7	-7	-10
Cc1cc(C)c(S(=O)(=O)N2CCCC2CNC(=O)c2ccc3c(c2)OCO3)c(C)c1 (configuration not stated)	5111	-10	-3	5	3.6	0	-3
CCN(CCO)C(=O)C12CCC(C)(C(=O)C1)C2(C)C (configuration not stated)	9912	-9	3	10	1.9	4	6
CCCCNC(=O)[C@@H]1CC=C[C@@H]2CCN(C3CC3)C(=O)[C@@H]21	3800	-16	1	.	.	.	.
CCc1ccc(NC(=O)C(CC)c2ccccc2)cc1 (configuration not stated)	2406	-23	-3	17	-1.9	0	-5
Cc1c(C(=O)N2CCOCC2)c(S(=O)(=O)Nc2cccc(C#N)c2)c(C)n1C	4250	-8	-4	1	4.8	13	9
C/C(=N\NC(=O)Cc1ccc(Cl)cc1)c1cccnc1	3885	-7	2	.	.	.	.
CN(C)C(=O)CN(C)S(=O)(=O)c1ccc(Cl)cc1	10933	-6	5	0	1.6	-4	6
CCOc1ccc(C(C(=O)NC2CCCCC2)N(C(=O)Cc2cccs2)c2ccc(-n3cnnn3)c(OC)c2)cc1 (configuration not stated)	2401	-6	11	8	5.0	-6	10
COc1ccc(CNC(=O)C(C)N2C(=O)NC(c3ccccc3)(c3ccccc3)C2=O)cc1 (configuration not stated)	3301	-4	.	-2	-0.6	10	8
CCn1c(C)c(C(C)=O)c(N2CCCCC2)nc1=S	2274	-3	-12	8	2.1	.	.
CC(=O)Oc1ccc(C(=O)Nc2cccc(C(=O)c3ccc(C)c(C)c3)c2)cc1	3630	0	-8	16	-3.2	3	-3
C=CCn1c(=S)sc2c(=O)[nH]cnc21	3494	.	1	11	4.2	-1	0
COc1ccc(CCNC(=O)c2cccc(S(=O)(=O)N3CCCCCC3)c2)cc1	3503	-25	.	4	-1.6	-4	-2
O=C(CCCC(=O)OCC(=O)c1cccs1)Nc1ccc(Oc2ccccc2)cc1	2808	-14	-10	16	3.6	.	.
NS(=O)(=O)c1ccc(NC(=O)c2ccc(F)cc2F)c(NC(=O)c2ccc(F)cc2F)c1	4205	1	-3	8	0.1	2	3
O=C(CNC(=O)c1ccccc1Cl)Nc1ccc(F)cc1	2422	-18	3	2	4.2	11	6
Cc1ccc(N(CC(=O)NCC2CCCO2)S(=O)(=O)c2ccccc2)c(C)c1 (configuration not stated)	3125	5	-7	7	5.2	6	5
COCCOn1c(SCCOC)nc2ccccc2c1=O	4172	-9	-1	13	3.1	7	-4
